PKD1 inh – inhibitors of human PKD1 kinase | 0.056% of 200,000 active | AID 797 | PKD1 kinase fluorescence polarization assay | Q15139 | inhibition, %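 (about 10 µM by stock and volumes)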;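 active means inhibition of 50% or more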;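 further: controls were vehicle for no effect and a reference inhibitor for full effect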
Target sequence (Q15139 whole entry, looked up): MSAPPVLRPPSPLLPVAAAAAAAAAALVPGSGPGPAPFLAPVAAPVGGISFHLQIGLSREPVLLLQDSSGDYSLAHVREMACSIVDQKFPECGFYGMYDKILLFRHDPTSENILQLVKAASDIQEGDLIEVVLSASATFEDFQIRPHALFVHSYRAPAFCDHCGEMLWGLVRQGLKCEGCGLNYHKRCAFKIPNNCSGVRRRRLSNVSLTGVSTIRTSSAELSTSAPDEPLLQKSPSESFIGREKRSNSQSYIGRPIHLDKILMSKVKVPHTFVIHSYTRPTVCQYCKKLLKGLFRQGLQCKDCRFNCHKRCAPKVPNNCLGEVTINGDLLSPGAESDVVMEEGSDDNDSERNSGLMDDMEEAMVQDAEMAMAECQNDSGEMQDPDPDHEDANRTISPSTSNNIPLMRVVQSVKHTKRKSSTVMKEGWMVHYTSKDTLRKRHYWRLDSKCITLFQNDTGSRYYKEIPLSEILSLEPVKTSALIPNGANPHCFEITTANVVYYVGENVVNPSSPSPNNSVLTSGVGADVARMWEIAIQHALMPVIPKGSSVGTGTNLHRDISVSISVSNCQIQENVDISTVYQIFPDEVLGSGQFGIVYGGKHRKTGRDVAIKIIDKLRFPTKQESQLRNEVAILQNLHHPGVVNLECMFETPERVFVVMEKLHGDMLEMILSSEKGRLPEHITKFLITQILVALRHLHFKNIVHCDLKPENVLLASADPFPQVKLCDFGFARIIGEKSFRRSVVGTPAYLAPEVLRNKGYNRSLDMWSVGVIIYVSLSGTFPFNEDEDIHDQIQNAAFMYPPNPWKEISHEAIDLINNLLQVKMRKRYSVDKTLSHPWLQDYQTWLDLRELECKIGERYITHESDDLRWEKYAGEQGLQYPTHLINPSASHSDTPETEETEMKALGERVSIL
INS promoter inh – TRM-6 insulin promoter activity inhibition; TRM-6 cells (human fetal islet line), insulin promoter-eGFP reporter, imaging; reporter expression induced with tamoxifen; inhibition, % at 2 µM; 0.9% of 130,000 active; AID 1273;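 active means inhibition above the mean plus 3 SD, with well images judged a real hit on visual review, cut at about 60% in these data, passing the limit was not always enough; inconclusive means inhibition over the cutoff but images rejected on review; inactive means inhibition not above the cutoff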
RGS16-Gao – modulates binding between human RGS16 and Galphao; O15492+P09471; bead-based flow cytometry RGS16-Galphao binding, fluorescence; actives lie on both sides; binding response (% of control), % at 10 µM; 0.38% of 220,000 active; AID 1441;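 active means below 25% or above 175%, edge rows of some plates excepted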;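 further: Galphao activated by GDP with aluminum fluoride before binding; 100% = wells without compound and 0% = beads without RGS; some results beyond the cut were filed as inactive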
GALR2 agonist – agonists of human galanin receptor 2 (GALR2); GALR2-expressing cells, agonist activation read-out; activation, %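 (tested at 5 µM)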; 0.48% of 140,000 active;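 active means above mean plus 3 SD of all compounds, about 5% in these data, not always enough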;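 further: 0% = vehicle buffer wells and 100% = reference agonist at full effect; tested in CHO reporter cells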
HSV replic up – increases HSV replication in cells | HSV replication augmentation in cells, fold increase | maximum fold increase | 0.005% of 220,000 active | AID 1956;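 active means peak rise of 1.5-fold or more in the series; inconclusive means self-fluorescent or not available for retest; tested in PC3 cells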;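 further: first round at 10 µM; read as green reporter fluorescence; hits show the peak of a series up to 25 µM; 1 = signal of infected wells without compound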
INS promoter inh cell count – recorded beside INS promoter inh, whose call it bears; normalized cell count, %; measured here: cell count, toxicity; reference of the scale not given here;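 cells exposed to compound for 48 h; stained nuclei by imaging scaled within each plate; lower means fewer cells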
HSV replic up primary fold – second read-out of HSV replic up, no call of its own (marks repeat the call); fold increase; compound at 10 µM; measured here: primary screen fold increase 10 uM; tested in PC3 cells;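 GFP signal in the first replicate; 1 = infected wells without compound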
The depositor's hits bear a star; i = inactive; ? = inconclusive; . = no result given.

Compound,GALR2 agonist,HSV replic up primary fold,RGS16-Gao,PKD1 inh,INS promoter inh,INS promoter inh cell count,HSV replic up
CCOC(=O)N1CCN(C(=O)c2ccc(N3C(=O)c4ccccc4C3=O)cc2)CC1,-1.0,0.96,35.2,-2.0,.,.,i
OCC1CCCN(c2ncnc3scc(-c4ccccc4)c23)C1 (stereo unspecified),.,0.95,86.1,0.1,50.0,112.7,i
CC(C)CC(NC(N)=O)C(=O)OCC(=O)Nc1ccc(SC(F)F)cc1 (stereo unspecified),.,0.82,105.9,-3.5,-7.1,140.7,i
Cc1ccccc1-c1nnc(-c2ccc(Cl)cc2)o1,1.2,1.05,107.8,1.4,-55.2,80.0,i
CCN(CC)C(=O)C(=O)c1ccn(-c2c(C)csc2C(=O)OC)c1,.,0.96,95.1,3.8,23.8,116.0,i
COc1ccc(C(C)=O)cc1COc1ccc(Cl)cc1Cl,.,1.03,95.0,.,.,.,i
CCc1nc(-c2ccc(-c3ccc(OC)cc3)nc2OC)no1,-0.1,0.88,108.9,-1.9,-7.9,98.9,i
CCC(C)NC(=O)c1cc(C)no1 (stereo unspecified),-0.1,0.94,100.9,0.3,-121.4,64.5,i
CCOC(=O)N1CCC(Nc2c(NCCCN(CC)c3cccc(C)c3)c(=O)c2=O)CC1,-1.0,0.64,98.0,1.9,.,.,i
CCCCOc1cccc(/C=N/NC(=O)c2csc(C)c2C)c1,-3.5,0.893,103.0,1.7,.,.,i
O=C(O)CCCCCCNC(=O)c1cncc(O)c1,.,0.99,103.1,-4.1,.,.,i
Cc1ccc(C2N3CC4([N+](=O)[O-])CN2CC([N+](=O)[O-])(C3)C4(C)C)cc1 (stereo unspecified),-1.6,1.09,62.9,-11.3,-24.1,111.0,i
COc1cc(Cl)ccc1NC(=S)N(CCN(C)C)C(C)c1ccncc1 (stereo unspecified),.,0.93,103.8,.,.,.,i
COC(=O)CSc1nc(-c2ccccc2)cc(-c2ccco2)c1C#N,-1.8,0.81,105.7,1.4,.,.,i
O=c1cc(O)c(-c2ccccc2)c(Cl)[nH]1,-1.4,1,106.0,5.2,20.0,77.6,i
CCCOc1ccc(NC(=O)CC2C(=O)N(C)C(=S)N2Cc2ccc3c(c2)OCO3)cc1 (stereo unspecified),0.4,0.74,58.5,-2.5,-41.7,129.5,i
O=S1(=O)C=CC(c2ccccc2)C1 (stereo unspecified),.,1.05,101.8,.,.,.,i
CCN1CCc2c(OCc3ccccc3)cccc2C1=O,.,1.01,102.8,2.5,.,.,i
O=C(O)c1cn(C2CCCCC2)c2ccccc2c1=O,.,1.25,102.1,.,.,.,i
CCCOc1ccccc1NC(=O)c1ccc(N)cc1,0.7,0.89,88.2,1.6,-15.8,100.0,i
COc1ccc(N(CC(=O)Nc2ccccc2C(=O)N2CCOCC2)S(=O)(=O)c2ccc(F)cc2)cc1,-1.6,1.04,111.8,3.6,-28.1,116.1,i
COc1ccc(-c2csc(NC(=O)CCS(=O)(=O)c3ccccc3)n2)c(OC)c1,.,0.75,107.5,.,.,.,i
CCOC(=O)c1ccc[n+](C(C)C(=O)c2ccc(-c3ccccc3)cc2)c1 (stereo unspecified),-1.3,1.09,100.8,-8.0,.,.,i
CN(C)/C=C/c1c(C#N)c(=O)ncn1Cc1ccccc1,0.4,0.57,93.5,2.6,5.6,170.2,i
COc1cc(OC)cc(-c2cc3nc(C4CCN(C(=O)OC(C)(C)C)CC4)cc(=O)n3[nH]2)c1,-1.2,0.77,180.9,0.2,39.7,112.5,i

More compounds.
Compound,GALR2 agonist,HSV replic up primary fold,RGS16-Gao,PKD1 inh,INS promoter inh,INS promoter inh cell count,HSV replic up
O=C1CCCc2c1nn(-c1ccccc1)[n+]2[O-],-2.5,0.99,102.4,-13.0,-22.2,93.0,i
CCCS(=O)(=O)c1c(S(=O)(=O)CCC)c2c(N)cccn2c1C(=O)c1ccccc1,0.6,1.04,104.0,-0.2,-52.8,137.7,i
CCOC(=O)c1sc(NC(=O)/C=C/c2cnn(C)c2C)c(C(=O)OC(C)C)c1C,-0.3,1.02,106.5,-4.0,.,.,i
CC(=O)NC(C)C(=O)OCc1ccc(Cl)cc1Cl (stereo unspecified),-0.6,0.95,103.3,-6.3,11.7,134.0,i
CSCCC(NC(=O)c1ccccc1)c1nc(-c2ccccc2)no1 (stereo unspecified),-2.2,0.91,105.7,-2.9,.,.,i
CC(CN1CCCCC1)NC(=O)c1cc(-c2ccccn2)nc2ccc(Cl)cc12 (stereo unspecified),.,0.81,98.2,5.3,.,.,i
CCCCN(C(=O)c1ccco1)c1nnc(-c2cc(OC)c(OC)c(OC)c2)s1,-1.6,1.07,111.8,-6.5,63.6,91.9,i
CC(C)(C)NNC(=S)Nc1ccc(S(=O)(=O)N2CCOCC2)cc1,.,0.94,100.2,-9.8,.,.,i
CC(C)(C)c1[nH]ncc1[N+](=O)[O-],.,0.95,111.3,-9.7,-72.7,105.2,i
O=C(N/N=C/c1ccco1)C1CC1(c1ccccc1)c1ccccc1 (stereo unspecified),-0.7,0.88,96.5,4.8,-32.4,115.8,i
O=C(O)C1Nc2c(O)cc(Cl)c([N+](=O)[O-])c2C2C=CCC12 (stereo unspecified),.,0.96,80.8,2.3,0.0,116.3,i
O=C1NCCCC1C(=O)Nc1ccccn1 (stereo unspecified),-3.1,0.98,97.2,-11.0,3.0,99.6,i
CC(=O)N/C(=C/c1ccc2c(c1)OCO2)C(=O)NCc1ccccc1,.,0.94,103.5,-2.4,.,.,i
CCNC(=S)NCc1ccc(F)cc1,-1.8,0.99,131.6,-7.9,10.0,118.6,i
COc1ccccc1-n1nc(C(=O)NCc2ccco2)c2ccccc2c1=O,-0.9,0.98,103.4,-0.7,.,.,i
CCC1=C(OC(=O)N(CC)CC)N2C(=O)OC(=NCC3CC3)[C@]2(Cc2ccccc2)[C@H]2C1=CC[C@H]1C(=O)N(C)C(=O)[C@H]12,.,0.795,84.4,.,.,.,i
Brc1cc(/C=N/n2cnnc2)oc1Br,.,1.1,98.2,-4.4,42.9,110.1,i
CNC(=O)CSc1nnc(COc2ccc([N+](=O)[O-])cc2)n1C,.,0.78,104.2,-4.8,17.6,112.8,i
Cc1ccc(NC(=O)CSCC(=O)N2c3ccccc3CCc3ccccc32)cc1,0.1,1.06,105.1,8.1,-41.7,110.5,i
CCCc1cc(C(=O)Cc2ccc(C(=O)OCC)o2)c(O)cc1O,-3.5,0.973,96.0,-0.9,3.2,104.2,i
CCOC(=O)C1=C(C)OC(N)=C(C#N)C1c1cc(C)sc1C (stereo unspecified),-0.7,0.91,100.6,0.1,-77.1,98.5,i
Cc1cc(F)ccc1S(=O)(=O)N1CCCOC1CNC(=O)C(=O)NCCc1c[nH]c2ccccc12 (stereo unspecified),-1.3,0.9,104.6,-9.0,-68.8,123.7,i
CCOc1cccc(NC(=O)c2ccc(S(=O)(=O)N3CCCC3)cc2)c1,.,0.64,95.8,.,.,.,i
O=C1CN(CC(=O)Nc2cccc(Cl)c2Cl)c2ccccc2N1,.,0.78,63.7,7.5,-220.0,34.8,i
Cc1ccc(C2C(C(=O)c3cccs3)=C(O)C(=O)N2c2ccc(S(N)(=O)=O)cc2)cc1 (stereo unspecified),.,0.96,95.7,.,.,.,i

Other compounds.
Compound,GALR2 agonist,HSV replic up primary fold,RGS16-Gao,PKD1 inh,INS promoter inh,INS promoter inh cell count,HSV replic up
CCN(CC)S(=O)(=O)c1cccc(-c2nnc(SCC(=O)NC)n2N)c1,.,0.81,101.5,-1.0,-64.3,140.0,i
COc1ccc(S(=O)(=O)N(C)CC(=O)Nc2ccc(C(N)=O)cc2)cc1OC,.,1.15,106.2,-6.4,-73.0,117.0,i
Cc1ccccc1NC(=S)N1CCN(Cc2ccccc2)CC1,2.2,0.93,117.3,-5.5,10.3,108.7,i
N#Cc1c(NC(=O)C2CC(c3c(F)cccc3Cl)=NO2)sc2c1CCC2 (stereo unspecified),-1.0,0.98,103.0,3.7,-94.6,156.6,i
COc1ccccc1NC(=O)Nc1ccc(CC#N)cc1,.,0.97,107.0,.,.,.,i
Cc1c(C(=O)C(=O)N2CC=C(c3ccccc3)CC2)c2ccccc2n1C,0.3,.,96.9,-7.6,48.4,29.8,?
CCN(CC)c1ccc(NC(=O)c2ccccc2OCC(=O)OC)cc1,.,1.03,61.7,2.2,.,.,i
COc1ccc(OC)c(/C=N/NC(=O)C(=O)NCc2cccnc2)c1,.,1.02,111.1,4.2,-71.4,64.7,i
O=C1/C(=C/c2cccnc2)CCC/C1=C\c1cccnc1,-1.2,0.55,98.6,-3.8,-106.9,14.5,i
Cc1cc(C)nc(SCC(=O)N(C)C)n1,.,1.01,102.5,-1.8,.,.,i
COc1cc(NS(=O)(=O)c2ccc(NC(=S)NC(=O)c3cccs3)cc2)nc(OC)n1,1.2,0.99,112.4,-0.1,-61.1,88.1,i
Cc1ccc(C(=O)c2sc(Nc3ccccc3)c(C#N)c2N)cc1,1.6,0.8,100.9,-14.0,3.6,105.8,i
CCOC(=O)c1cnc2nc(COc3ccccc3)[nH]n2c1=O,-1.6,1.02,99.0,-6.8,-13.8,102.7,i
COc1ccc(N2CCN(Cc3nc4scc(-c5ccccc5)c4c(=O)[nH]3)CC2)cc1,-2.2,1.05,103.4,-6.6,-16.9,84.0,i
Cc1cc(C)c2nc(-c3ccccn3)cc(C(=O)NCc3ccco3)c2c1,-4.0,0.87,95.3,-9.8,5.7,146.4,i
COc1ccc(C2CCCN2C(=O)Nc2ccccc2)cc1OC (stereo unspecified),-0.6,0.99,98.4,3.9,.,.,i
COc1ccc(-c2c[n+]3c(n2-c2ccccc2)SCC3)cc1OC,.,0.9,104.8,-0.9,.,.,i
COC(=O)C1=C(C)NC(=O)NC1c1ccccc1 (stereo unspecified),-1.1,0.92,95.7,-5.2,.,.,i
COc1ccc(OC)c(C2C3=C(CCCC3=O)NC3=C2C(=O)CCC3)c1,-0.9,1.03,104.5,-5.3,-17.9,97.2,i
O=C(Nc1ccccc1N1CCCCC1)c1ccco1,-1.8,0.923,98.6,-4.2,-52.8,246.9,i
O=C(COc1ccc([N+](=O)[O-])cc1)Nc1ccc2c(c1)OCO2,.,0.86,104.6,1.0,.,.,i
Cc1ccc(OCC(=O)N2CCCCCC2)c(C)c1,-1.4,1.25,104.7,-4.0,-44.1,115.3,i
Cc1ccc(C(=O)NNC(=O)CCCN2C(=O)/C(=C/c3ccccc3Cl)SC2=S)cc1,-0.2,1,86.5,-6.6,63.0,93.0,i
O=c1c2ccccc2nc2n1CCN2,-1.5,0.92,101.2,9.4,5.4,223.1,i
O=C(NCCN1CCCC1)c1ccc2c(=O)n(CCc3ccccc3)c(=O)[nH]c2c1,-1.6,0.95,98.7,-2.9,.,.,i
COc1cccc(S(=O)(=O)N2CCN(c3ccccc3F)CC2)c1,-1.4,0.92,179.4,3.6,20.0,138.5,i
C=CCc1ccc(OCC(O)CN2CCN(Cc3ccc(Cl)cc3)CC2)c(OC)c1 (stereo unspecified),-1.2,0.9,108.4,-10.6,-24.1,87.9,i
O=C(Nc1ccccc1)C1=C[C@@H](c2ccc(Br)cc2)C[C@@H](OCc2ccc(CO)cc2)O1,.,0.81,104.8,-5.7,.,.,i
